UUG fidelity – modulators of yeast start codon fidelity, primary screen, whole organism, S. cerevisiae, single point, plate reader; activity score, % at 18.7 µM; AID 602363, 2012; S. cerevisiae UUG-firefly luciferase reporter, luminescence/redox ratio; hit rate 0.13% among 350,000;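 active = replicate mean at a twofold rise or more, about +100% in these data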;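 note: firefly luciferase made from a UUG start codon reports start codon fidelity; reporter light over untreated wells divided by growth signal over untreated wells; some hits fall short of that in this replicate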
HIV Env fusion – inhibitors of HIV-1 Env-driven cell-cell fusion, primary screen, HeLa-JRFL effector, CEM21 target cells, luciferase | inhibition, % at 12.3 µM | hit rate 1.1% among 360,000 | AID 651610, 2012;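 active = mean replicate inhibition score of at least 50 and every replicate individually at or above 50; inconclusive = only one of the two criteria met; inactive = mean below 50 and not all replicates reaching 50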;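 note: 0% = plate neutral controls and 100% = maraviroc near 300 nM; one replicate is shown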
Numbers without * were called inactive; ? = inconclusive; [ ] = another dose, or the depositor's remark.

SMILES	UUG fidelity	HIV Env fusion
COc1ccc(S(=O)(=O)N[C@@H]2CC[C@@H](CCn3cc(-c4cccc(F)c4)nn3)O[C@H]2CO)cc1	4	22[16.7 µM]
C[C@H](NC(=O)C[C@@H]1CC[C@@H](NC(=O)CN2CCOCC2)[C@@H](CO)O1)c1ccccc1	-14	-1[16.7 µM]
O=C1O[C@H](c2ccccc2)[C@H](c2ccccc2)N2[C@H]1[C@@H](C(=O)N1CCCCCCC1)[C@]1(C(=O)Nc3ccccc31)[C@H]2c1ccccc1OCCO	-5	59*[16.7 µM]
CNC[C@@H]1Oc2c(NC(=O)NC3CCCCC3)cccc2C(=O)N([C@H](C)CO)C[C@H]1C	-18	6[16.7 µM]
C[C@@H]1CN([C@H](C)CO)C(=O)c2cc(NC(=O)c3ccncc3)ccc2O[C@@H](C)CCCCO[C@H]1CN(C)Cc1ccc(C(=O)O)cc1	1	13[16.7 µM]
COc1ccccc1NC(=O)N(C)C[C@H]1Oc2cc(Br)ccc2S(=O)(=O)N([C@@H](C)CO)C[C@H]1C	12	-22[16.7 µM]
C[C@H](CO)N1C[C@H](C)[C@H](CN(C)C(=O)c2cccnc2)Oc2ncc(C3=CCCCC3)cc2C1=O	20	-5[16.7 µM]
C[C@@H]1CCCCO[C@H](CN(C)Cc2ccccc2)[C@@H](C)CN([C@H](C)CO)C(=O)c2cc(NC(=O)Nc3ccc(C(F)(F)F)cc3)ccc2O1	-1	4[16.7 µM]
COc1ccc(S(=O)(=O)N(C)C[C@@H]2Oc3c(NS(=O)(=O)c4c(C)noc4C)cccc3C(=O)N([C@H](C)CO)C[C@@H]2C)cc1	12	20[16.7 µM]
CO[C@@H]1CN(C)C(=O)c2ccc(NC(=O)NC(C)C)cc2OC[C@@H](C)NC[C@@H]1C	-10	8[16.7 µM]

Quoted from the listing.
O=C1O[C@H](c2ccccc2)[C@H](c2ccccc2)N2[C@H]1[C@@H](C(=O)N1CCCCCCC1)[C@]1(C(=O)Nc3ccccc31)[C@H]2c1ccccc1OCCO in UUG fidelity has -5
C[C@H](CO)N1C[C@H](C)[C@H](CN(C)C(=O)c2cccnc2)Oc2ncc(C3=CCCCC3)cc2C1=O in UUG fidelity has 20

The listing picks up, starting 2 compounds before the break.
SMILES	UUG fidelity	HIV Env fusion
COc1ccc(S(=O)(=O)N(C)C[C@@H]2Oc3c(NS(=O)(=O)c4c(C)noc4C)cccc3C(=O)N([C@H](C)CO)C[C@@H]2C)cc1	12	20[16.7 µM]
CO[C@@H]1CN(C)C(=O)c2ccc(NC(=O)NC(C)C)cc2OC[C@@H](C)NC[C@@H]1C	-10	8[16.7 µM]
C[C@@H]1CN([C@H](C)CO)C(=O)c2cc(NS(C)(=O)=O)ccc2O[C@@H](C)CCCCO[C@H]1CN(C)C(=O)Nc1ccc(C(F)(F)F)cc1	5	-11[16.7 µM]
Cc1ccc(S(=O)(=O)N(C)C[C@@H]2OCCCC[C@@H](C)Oc3ccc(NS(=O)(=O)c4c(C)noc4C)cc3C(=O)N([C@@H](C)CO)C[C@@H]2C)cc1	-14	45[16.7 µM]
C[C@@H]1CCCCO[C@H](CN(C)S(=O)(=O)c2ccc(Cl)cc2)[C@@H](C)CN([C@H](C)CO)C(=O)c2cc(NC(=O)NC3CCCCC3)ccc2O1	-16	16[16.7 µM]
C[C@H]1CN([C@@H](C)CO)C(=O)c2cc(NC(=O)Nc3cccc4ccccc34)ccc2O[C@H]1CN(C)C(=O)Nc1cccc2ccccc12	8	1[16.7 µM]
CNC[C@@H]1OCCCC[C@H](C)Oc2ccc(NC(=O)Nc3c(C)noc3C)cc2C(=O)N([C@@H](C)CO)C[C@H]1C	32	4[16.7 µM]
C[C@@H]1CCCCO[C@H](CN(C)Cc2ccccc2)[C@H](C)CN([C@H](C)CO)C(=O)c2cc(NC(=O)Nc3ccc4c(c3)OCO4)ccc2O1	4	-39[16.7 µM]
CCNC(=O)C[C@H]1CC[C@H]2[C@H](COc3ccc(NC(=O)Nc4cccc(Cl)c4)cc3C(=O)N2C)O1	-17	10[16.7 µM]
C[C@@H]1CCCCO[C@@H](CN(C)Cc2ccc(C(F)(F)F)cc2)[C@@H](C)CN([C@@H](C)CO)C(=O)c2cc(NC(=O)Nc3cccc4ccccc34)ccc2O1	8	14[16.7 µM]
C[C@@H]1CCCCO[C@@H](CN(C)Cc2ccc(C(F)(F)F)cc2)[C@@H](C)CN([C@H](C)CO)C(=O)c2cc(NC(=O)Nc3ccc4c(c3)OCO4)ccc2O1	-12	-15[16.7 µM]
O=C(Nc1ccc2c(c1)OCO2)N[C@@H]1CC[C@@H](CCNC(=O)C2CCOCC2)O[C@@H]1CO	-3	7[16.7 µM]
C[C@H](CO)N1C[C@H](C)[C@H](CN(C)Cc2ccccc2)Oc2ccc(NC(=O)CCN3CCOCC3)cc2CC1=O	-10	2[16.7 µM]
C[C@@H]1CN([C@@H](C)CO)C(=O)c2cc(NC(=O)C3CCCCC3)ccc2O[C@@H](C)CCCCO[C@H]1CN(C)C(=O)Nc1ccc2c(c1)OCO2	4	-19[16.7 µM]
C[C@H]1CCCCO[C@@H](CN(C)C(=O)Nc2cccc3ccccc23)[C@@H](C)CN([C@@H](C)CO)C(=O)c2cc(NS(C)(=O)=O)ccc2O1	1	1[16.7 µM]
C[C@@H]1CN([C@H](C)CO)C(=O)Cc2cc(NC(=O)C3CC3)ccc2O[C@H]1CN(C)C(=O)Nc1ccc(C(F)(F)F)cc1	15	17[16.7 µM]
Cc1ccc(S(=O)(=O)Nc2ccc3c(c2)CC(=O)N([C@@H](C)CO)C[C@H](C)[C@H](CN(C)C(=O)Nc2cccc4ccccc24)O3)cc1	5	3[16.7 µM]
C[C@H]1CN([C@@H](C)CO)C(=O)Cc2cc(NC(=O)Nc3ccc(C(F)(F)F)cc3)ccc2O[C@@H]1CN(C)CC1CC1	4	1[16.7 µM]
CCC(=O)N(C)C[C@H]1Oc2cc(C#CC3CC3)ccc2S(=O)(=O)N([C@@H](C)CO)C[C@@H]1C	20	-9[16.7 µM]
CCNC(=O)C[C@@H]1CC[C@H]2[C@@H](COc3ccc(NC(=O)Nc4ccccc4F)cc3C(=O)N2C)O1	-5	-14[16.7 µM]
C[C@@H]1CN([C@@H](C)CO)C(=O)c2cc(NS(=O)(=O)c3ccccc3)ccc2O[C@@H]1CN(C)CC1CC1	0	1[16.7 µM]
COCC#Cc1cnc2c(c1)C(=O)N([C@@H](C)CO)C[C@@H](C)[C@H](CN(C)C(=O)Cc1ccccc1)O2	13	1[16.7 µM]
C[C@@H]1CN([C@H](C)CO)C(=O)c2cccc(NC(=O)C3CCCCC3)c2O[C@@H]1CN(C)Cc1ccccc1	-6	-1[16.7 µM]
COc1ccc(CNC(=O)C[C@@H]2CC[C@@H](NC(=O)c3cccc(F)c3)[C@@H](CO)O2)cc1	27	2[16.7 µM]
C[C@@H]1CN([C@@H](C)CO)C(=O)c2cccc(NC(=O)C3CC3)c2O[C@@H]1CN(C)S(=O)(=O)c1cccs1	12	12[16.7 µM]
C[C@@H]1CN([C@@H](C)CO)C(=O)CCCn2cc(nn2)CO[C@H]1CN(C)C(=O)Cc1ccccc1	-2	-34
COCC(=O)N1C[C@@H](C)[C@H](OC)CN(C)C(=O)c2ccc(NC(=O)c3ccc(F)cc3)cc2OC[C@@H]1C	10	-1[16.7 µM]
C[C@H]1CCCCO[C@@H](CN(C)C(=O)Cc2ccccc2)[C@@H](C)CN([C@@H](C)CO)C(=O)c2cc(NS(C)(=O)=O)ccc2O1	8	?
Cc1ccc(S(=O)(=O)N(C)C[C@@H]2OCCCC[C@@H](C)Oc3ccc(NS(=O)(=O)c4ccccc4)cc3C(=O)N([C@@H](C)CO)C[C@@H]2C)cc1	0	-31[16.7 µM]
C[C@H]1CN([C@@H](C)CO)S(=O)(=O)c2ccc(C#CCN(C)C)cc2O[C@H]1CN(C)Cc1ccc(F)cc1	7	14[16.7 µM]
Cc1ccc(S(=O)(=O)N[C@H]2C=C[C@@H](CC(=O)NCc3ccccc3F)O[C@H]2CO)cc1	-5	5[16.7 µM]
COc1ccc(-c2cnc3c(c2)C(=O)N([C@H](C)CO)C[C@@H](C)[C@H](CN(C)C(=O)C2CCOCC2)O3)cc1	7	15[16.7 µM]
C[C@H](CO)N1C[C@H](C)[C@@H](CN(C)C)Oc2cc(C#CC3(O)CCCC3)ccc2S1(=O)=O	7	1[16.7 µM]
O=C(C[C@@H]1C[C@@H]2c3cc(NC(=O)Cc4ccncc4)ccc3O[C@@H]2[C@@H](CO)O1)NCc1cccnc1	-7	-5[16.7 µM]
C[C@@H]1CN([C@H](C)CO)C(=O)Cc2cc(NC(=O)Nc3ccc(C(F)(F)F)cc3)ccc2O[C@@H]1CN(C)Cc1ccc(Oc2ccccc2)cc1	3	8[16.7 µM]
CCCNC(=O)N(C)C[C@H]1Oc2ncc(C3=CCCC3)cc2C(=O)N([C@H](C)CO)C[C@@H]1C	11	-13[16.7 µM]
C[C@@H]1CN([C@@H](C)CO)S(=O)(=O)c2ccc(C#CC3CCCC3)cc2O[C@H]1CN(C)C(=O)Nc1cc(F)ccc1F	-6	14[16.7 µM]
C[C@H](CO)N1C[C@H](C)[C@H](CN(C)Cc2ccc(Cl)c(Cl)c2)Oc2ccc(NS(=O)(=O)c3ccc(Cl)cc3)cc2CC1=O	-3	-13[16.7 µM]
O=C(CC1CC1)Nc1ccc2c(c1)[C@@H]1C[C@H](CC(=O)N3CCOCC3)O[C@H](CO)[C@@H]1O2	3	14[16.7 µM]
C[C@@H]1CCCCO[C@@H](CN(C)C(=O)Nc2ccc3c(c2)OCO3)[C@@H](C)CN([C@H](C)CO)C(=O)c2cc(NC(=O)Nc3ccc(F)cc3)ccc2O1	-4	-23[16.7 µM]
Cc1noc(C)c1NC(=O)Nc1ccc2c(c1)CC(=O)N([C@H](C)CO)C[C@@H](C)[C@H](CN(C)S(=O)(=O)c1cn(C)cn1)O2	21	-18[16.7 µM]
Cc1ccc(S(=O)(=O)N(C)C[C@@H]2OCCCC[C@@H](C)Oc3ccc(NS(C)(=O)=O)cc3C(=O)N([C@H](C)CO)C[C@@H]2C)cc1	0	14[16.7 µM]
COc1ccccc1CNC(=O)C[C@@H]1C[C@H]2c3cc(NC(=O)Nc4ccccc4F)ccc3O[C@H]2[C@@H](CO)O1	21	-15[16.7 µM]
Cc1ccc(S(=O)(=O)N(C)C[C@H]2OCCCC[C@H](C)Oc3ccc(NC(=O)Nc4cccc5ccccc45)cc3C(=O)N([C@H](C)CO)C[C@H]2C)cc1	-10	-6[16.7 µM]
O=C(C[C@H]1C=C[C@@H](NC(=O)c2ccc(F)cc2)[C@H](CO)O1)NCCc1ccncc1	-19	6[16.7 µM]
COc1ccc(NC(=O)Nc2cccc3c2O[C@@H](CN(C)Cc2ccc(Cl)c(Cl)c2)[C@H](C)CN([C@H](C)CO)C3=O)cc1	0	-24[16.7 µM]
CCCC(=O)Nc1ccc2c(c1)C(=O)N(C)[C@@H]1CC[C@@H](CC(=O)Nc3ccccc3)O[C@H]1CO2	15	11[16.7 µM]
CN(C)CC(=O)N[C@H]1CC[C@@H](CCn2cc(C3CCCCC3)nn2)O[C@@H]1CO	-8	-2[16.7 µM]
Cc1noc(C)c1NC(=O)N(C)C[C@H]1Oc2ccc(NC(=O)Nc3cccc4ccccc34)cc2CC(=O)N([C@@H](C)CO)C[C@@H]1C	10	-14[16.7 µM]
CN(C)CC(=O)N1[C@H](C#N)[C@@H](c2ccc(C#CC3CC3)cc2)[C@H]1CO	5	-13[16.7 µM]
C[C@H]1CCCCO[C@H](CN(C)S(=O)(=O)c2ccc(F)cc2)[C@@H](C)CN([C@@H](C)CO)C(=O)c2cc(NS(=O)(=O)c3cccs3)ccc2O1	0	3[16.7 µM]
C[C@H]1CN([C@@H](C)CO)C(=O)c2cccc(NC(=O)Nc3cccc4ccccc34)c2O[C@H]1CN(C)C(=O)NC1CCCCC1	-4	21[16.7 µM]

6 structures from above, ordered by number of heavy atoms, low to high.
SMILES	UUG fidelity	HIV Env fusion
CN(C)CC(=O)N[C@H]1CC[C@@H](CCn2cc(C3CCCCC3)nn2)O[C@@H]1CO	-8	-2[16.7 µM]
CCCC(=O)Nc1ccc2c(c1)C(=O)N(C)[C@@H]1CC[C@@H](CC(=O)Nc3ccccc3)O[C@H]1CO2	15	11[16.7 µM]
COc1ccc(NC(=O)Nc2cccc3c2O[C@@H](CN(C)Cc2ccc(Cl)c(Cl)c2)[C@H](C)CN([C@H](C)CO)C3=O)cc1	0	-24[16.7 µM]
C[C@H]1CN([C@@H](C)CO)C(=O)c2cccc(NC(=O)Nc3cccc4ccccc34)c2O[C@H]1CN(C)C(=O)NC1CCCCC1	-4	21[16.7 µM]
Cc1noc(C)c1NC(=O)N(C)C[C@H]1Oc2ccc(NC(=O)Nc3cccc4ccccc34)cc2CC(=O)N([C@@H](C)CO)C[C@@H]1C	10	-14[16.7 µM]
C[C@H]1CCCCO[C@H](CN(C)S(=O)(=O)c2ccc(F)cc2)[C@@H](C)CN([C@@H](C)CO)C(=O)c2cc(NS(=O)(=O)c3cccs3)ccc2O1	0	3[16.7 µM]

More entries follow:
SMILES	UUG fidelity	HIV Env fusion
COc1ccc(CN(C)C[C@@H]2OCCCC[C@H](C)Oc3ccc(NC(=O)Nc4ccc(F)cc4)cc3C(=O)N([C@@H](C)CO)C[C@@H]2C)cc1	7	24[16.7 µM]
C[C@H](CO)N1C[C@H](C)[C@H](CN(C)S(=O)(=O)c2ccccc2)OCCCC[C@H](C)Oc2ccc(NC(=O)Nc3ccccc3)cc2C1=O	-21	-15[16.7 µM]
O=C(O)C[C@H]1CC[C@H](NC(=O)Nc2ccccc2)[C@@H](CO)O1	-13	-4[16.7 µM]
C/C=C/c1ccc2c(c1)O[C@H](CN(C)S(C)(=O)=O)[C@H](C)CN([C@@H](C)CO)S2(=O)=O	18	2[16.7 µM]

From PubChem

This is a subset; the hit share may differ from the screen's.
